Screening data: PubChem BioAssay, ICCB-Longwood Screening Facility, Harvard Medical School
MbtI inh – MbtI salicylate synthase inhibition | inhibition, %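 (about 17 µg/mL by stock and volumes)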 | P9WFX0 | 0.89% of 100,000 active | AID 493033 | purified MbtI enzyme, fluorescence intensity read-out;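 active = above 50% in both replicates, above 80% if mildly self-fluorescent; inactive = the rest, strongly fluorescent compounds included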;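 note: 0% = mean of negative and 100% = mean of positive controls; one replicate is shown; some compounds called inactive have numbers as strong as hits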
Polio RdRp inh – inhibitors of poliovirus RNA polymerase binding and polymerization; P03300; poliovirus polymerase elongation, fluorescence polarization; stronger effect = lower value; % elongation, % (compound at 16.7 µg/mL); 0.66% of 150,000 active; AID 588519; in the data active = % elongation below about 90%; note: some results filed as inactive read as strong as hits
Target sequence (P03300 1749-2209 limits assumed): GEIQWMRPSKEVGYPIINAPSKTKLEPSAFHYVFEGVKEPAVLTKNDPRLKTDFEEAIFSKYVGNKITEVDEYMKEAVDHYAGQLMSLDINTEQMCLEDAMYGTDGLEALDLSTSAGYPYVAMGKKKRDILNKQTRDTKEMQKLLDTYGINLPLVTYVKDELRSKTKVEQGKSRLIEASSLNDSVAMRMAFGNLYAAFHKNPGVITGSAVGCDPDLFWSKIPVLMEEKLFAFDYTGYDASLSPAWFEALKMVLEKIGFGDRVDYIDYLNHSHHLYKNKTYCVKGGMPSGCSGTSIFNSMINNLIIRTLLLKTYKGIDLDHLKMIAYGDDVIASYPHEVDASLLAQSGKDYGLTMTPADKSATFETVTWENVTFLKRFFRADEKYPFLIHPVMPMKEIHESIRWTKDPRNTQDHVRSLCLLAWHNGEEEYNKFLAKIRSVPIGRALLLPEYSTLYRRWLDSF
MenB inh – Mtb MenB enzyme inhibition. AID 540299. 0.43% of 100,000 active. inhibition, %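 (about 12 µg/mL by stock and volumes)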. P9WNP5. MenB enzyme assay, absorbance read-out; some hits fall short of the stated cut;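 active = mean of two replicates above 30%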;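 note: 0% = no compound and 100% = wells with inactive enzyme; the first replicate is given; strong numbers were not always called active; inactives centre near -10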
Target sequence (P9WNP5 whole entry, looked up): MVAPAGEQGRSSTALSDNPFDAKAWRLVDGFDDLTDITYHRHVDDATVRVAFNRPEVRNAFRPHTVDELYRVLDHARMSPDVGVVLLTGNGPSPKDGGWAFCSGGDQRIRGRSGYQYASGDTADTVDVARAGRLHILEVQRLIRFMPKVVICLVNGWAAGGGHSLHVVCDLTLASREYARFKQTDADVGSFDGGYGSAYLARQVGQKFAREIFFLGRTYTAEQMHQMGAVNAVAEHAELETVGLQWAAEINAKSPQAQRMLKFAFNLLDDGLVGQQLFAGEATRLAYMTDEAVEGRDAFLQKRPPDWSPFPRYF
Polio RdRp inh intensity – also measured in Polio RdRp inh; calls as there; % elongation; measured here: total intensity read-out; formula for this scale not given here;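 total fluorescence in place of polarization; lower means less elongation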
Starred values were filed as active, the others as inactive; i = inactive; · = not tested or not shown.

Results follow in this order: MbtI inh, Polio RdRp inh, Polio RdRp inh intensity, MenB inh
O=C(NCC1CCCO1)c1ccc(N2CCCCS2(=O)=O)cc1 (configuration not stated)
    1, 102, 107, -19
CC(C)Cn1cc(NC(=O)N2C(C)CCCC2C)c2ccccc2c1=O (configuration not stated)
    30, 92, 88, -6
CCN1C(=O)/C(=C2\SC(=S)N(c3ccc(OC)cc3)C2=O)c2ccccc21
    -4, 101, 107, 11
CC(=O)N1CCC(=NNc2nc3ccccc3s2)CC1
    -1, 103, 108, -21
CCOC(=O)N1CCN=C1SCc1ccc(C(F)(F)F)cc1
    -5, 102, 106, -28
CCC(=O)N(c1nnc(-c2cc(OC)c(OC)c(OC)c2)s1)C1CCCC1
    89, 104, 102, -37
COc1ccc(CC(=O)n2nc(-c3ccc(Cl)cc3)nc2NCc2ccco2)cc1OC
    12, 103, 103, -13
Cc1nc2ccn(Cc3ccccc3)c(=O)c2cc1C(=O)N1CCN(c2ccccc2)CC1
    -15, 100, 102, -3
O=C(OCC(=O)N1CCCCCC1)c1ccc2[nH]c3c(c2c1)CCCC3
    i, 100, 101, -1
CN(CC(=O)NCc1ccccc1)S(=O)(=O)c1ccc2c(c1)c(=O)n(C)c(=O)n2C
    -2, 101, 106, -22
CC(C)Oc1ccc(CNCC2(O)CCOC(C)(C)C2)cc1 (configuration not stated)
    8, 102, 102, 12
O=C1c2ccccc2CN1CCSC(=S)N1CCSCC1
    1, 101, 98, -18
CC(C)(C)CNC(=O)c1ccccc1O
    i, 101, 104, -16
Cc1ccc(-c2cn3c4c(sc3n2)CCCC4)cc1
    6, 98, 100, -29
COc1cc2ncnc(NC(C)c3ccccc3)c2cc1OC (configuration not stated)
    -26, 102, 103, -13
Cn1c(N)c(C(=O)c2cccc(S(=O)(=O)N3CCc4ccccc43)c2)c(=O)[nH]c1=O
    -18, 103, 108, 2
CSC(=Nc1ccc(C)c(C)c1)NC#N
    ·, 103, 101, -8
Cc1ccc(N2C(=O)c3n[nH]c(C)c3C2c2ccccc2)cc1 (configuration not stated)
    0, 102, 104, -16
C=CCC1CC=CC(C)N1C(=O)OCc1ccccc1 (configuration not stated)
    -12, 106, 108, -24
N=c1n(CCCOc2ccccc2)c2ccccc2n1CC(N)=O
    2, 101, 104, 11
Cc1ccc(NC(=O)Cn2c(=O)c(C)nc3ccccc32)cc1
    -3, 99, 105, ·
Cc1ccc(OCC(=O)Nc2ccccc2C(N)=O)cc1
    ·, 104, 103, -1
N#CCC(=O)N1CCNCC1
    -5, 97, 109, -4
CCc1ccccc1NC1c2ccccc2C(=O)N1Cc1ccco1 (configuration not stated)
    0, 101, 103, -4
COC(CN(C)C(=O)c1ccc2c(c1)N(Cc1ccc(Cl)cc1)C(=O)c1ccccc1S2=O)OC (configuration not stated)
    -2, 100, 102, 1
O=C(Nc1cccc(NC(=O)c2c(F)cccc2F)n1)c1c(F)cccc1F
    -3, 106, 102, -16
COc1ccc(C)cc1NC(=O)COC(=O)c1c(C)noc1C
    1, 101, 99, -26
CCn1c2ccccc2c2cc(/C=C3\CCC(C4CCCC4)C3=O)ccc21 (configuration not stated)
    -2, 104, 108, -20
COc1ccc(OC)c(/C=N/NC(=O)Cc2nc3ccccc3[nH]2)c1
    103, 104, 104, -28
Cc1ccc(-n2nc(CN3CCOCC3)c(-c3ccccc3)c2N)c(C)c1
    -26, 102, 103, -23
S=C(Nc1ccc(Cl)cc1)NN1CCOCC1
    -7, 105, 100, -18
Cc1cc(Br)ccc1SCC(=O)OCC(=O)NC1CC1
    -6, 100, 105, ·
NC(=O)NC(=O)/C=C/c1ccccc1O
    -4, 99, 95, -15
CC1=CC(=C2C(=O)c3ccccc3C2=O)C=C(C)N1C(C)C
    -1, 101, 103, -66
CC(NC(=O)COc1ccc(C#N)cc1)C1CC2CCC1C2 (configuration not stated)
    -9, 104, 108, ·
CC1CC(C)CN(C(=O)COC(=O)c2cc(Cl)cc(Cl)c2)C1 (configuration not stated)
    -6, 103, 104, ·
N=P(N1CCOCC1)(N1CCOCC1)C12CC3CC(CC(C3)C1)C2
    8, 109, 113, -5
COc1ccc(N2CCN(CCN3CCCCC3)CC2)cc1
    9, 101, 101, 19
CCOC(=O)c1cc(NC(=O)CC(C)(C)CC(=O)O)ccc1N1CCCCC1
    1, 101, 105, -18
O=c1c2ccccc2n2c(=O)[nH]nc2n1Cc1ccc(F)cc1
    3, 98, 98, -6
O=C(O)c1ccccc1N(Cc1ccccc1)C(=O)COc1ccccc1
    -8, 103, 104, ·
CC1CCC2(CC1)NC(=O)N(NC(=O)COC(=O)CCc1ccccc1)C2=O (configuration not stated)
    -8, ·, ·, -35
COC(=O)/C(=C/c1c[nH]c2ccccc12)NC(C)=O
    0, 103, 109, -23
c1ccc(-c2cnc(-c3cccs3)o2)cc1
    100, 106, 105, -10
CC1CCc2sc(NC(=O)C3CC3)c(C#N)c2C1 (configuration not stated)
    8, 100, 104, -4
O=C1CCC(C(=O)NNc2c(F)c(F)cc(F)c2F)=NN1
    6, 107, 105, -9
CN(Cc1ccccc1)C(=O)COc1ccc(-n2ccnc2)cc1
    0, 101, 109, -22
O=C(NCc1ccccc1)c1noc2c1CCc1ccccc1-2
    13, 103, 93, -21
CCN1C(=O)/C(=C(/C#N)C(=O)C(C)(C)C)c2ccccc21
    2, 105, 94, 3
CCOc1ccccc1NC(=O)CSc1nc2nccnc2c(=O)n1Cc1ccc2c(c1)OCO2
    -6, 100, 99, -28
CC(C)C(=O)N1CCN(C2c3ccccc3CC2NS(=O)(=O)c2ccccc2)CC1 (configuration not stated)
    3, 101, 103, 12
Cc1[nH]c2ccccc2c1C1=CCN(S(=O)(=O)c2ccccc2)CC1
    -5, 103, 105, -9
CC(=O)Nc1ccc(NC(=O)C2(c3ccccc3)CCCC2)cc1
    -1, 104, 96, -5
O=C(Nc1cccc(C(F)(F)F)c1)Nc1nc2ccccc2[nH]1
    -10, 108, 116, 0
COc1cccc(-c2nc(COC(=O)c3cc(C)on3)cs2)c1OC
    5, 108, 99, -17
N#C/C(C(=O)N1CCCCC1)=C1/SC=C(c2ccccc2)N1c1ccccc1
    -12, 101, 106, -41
Nn1cnnc1SCc1ccccc1Oc1ccccc1
    0, 101, 104, 1
CCOc1ccc(C(=O)Nc2ccc3c(c2)C(=O)N(C)C3=O)cc1
    48, 100, 99, -11
CCOc1ccc(C2C(C#N)=C(N)Oc3c2ccc(=O)c2c(C)oc(C)c32)cc1 (configuration not stated)
    3, 108, 135, -49
CCCCN(C)S(=O)(=O)c1ccc(NC(=O)c2ccncc2)cc1
    6, 100, 105, 2

(listing goes on)
Results follow in this order: MbtI inh, Polio RdRp inh, Polio RdRp inh intensity, MenB inh
Cc1csc(=Nc2cccnc2)n1CC1CCCCC1
    9, 100, 102, -10
CCCn1c(SCC(=O)Nc2cccc(CC)c2)nc2c(oc3ccccc32)c1=O
    -16, 101, 104, -19
CCCN(CCC)C(=O)CSc1nnc(-c2cc3sccc3n2C)n1-c1c(C)cc(C)cc1C
    -13, 101, 101, -7
O=C1CC(C2CCCO2)C(=O)N1c1cccc(C(F)(F)F)c1 (configuration not stated)
    5, 102, 103, -15
Clc1ccc(NCc2ccccc2)cc1
    ·, 100, 102, -16
CCc1cc2c(SC(C)C(N)=O)ncnc2s1 (configuration not stated)
    -2, 105, 110, -16
NS(=O)(=O)c1ccc(-c2ccc(/C=C3\C(=O)Nc4cc(Cl)ccc43)o2)cc1
    39, 105, 114, -4
O=C(Cn1c(=O)cnc2ccccc21)Nc1ccccc1
    9, 113, 114, -9
Cc1nn(C(C)C(=O)N(C)Cc2ccccc2)c(=O)c2c1sc1ccccc12 (configuration not stated)
    6, 102, 107, 7
O=c1oc2ccccc2c(O)c1/C=N/N1CCOCC1
    3, 106, 109, -24
CCN(CC)CCNc1ccc(C(F)(F)F)cn1
    -15, 103, 103, -17
Cn1cnnc1SCNC(=O)C(F)(F)F
    -4, 99, 106, -6
CCCNC(=O)c1cc(C(C)C)on1
    -6, 99, 102, -9
CN1Cc2ccccc2N(CC(=O)NCc2ccccc2)C1=O
    13, 102, 100, -48
O=S1(=O)C=C(Sc2nc3ccccc3s2)c2ccccc21
    30, 104, 102, 8
C/C(CN1C(=O)CCC1=O)=N/NC(=O)C1CCN(S(=O)(=O)c2ccc(C)cc2)CC1
    -2, 103, 103, -3
CCN(CC(=O)NCc1ccc(F)cc1)Cn1cnc2ccccc21
    3, 103, 95, 4
O=C(CC(c1ccc(Cl)cc1)S(=O)(=O)c1ccccc1)c1cccs1 (configuration not stated)
    -2, 98, 102, ·
CCOC(=O)c1sc(COc2ccc(C(C)(C)C)cc2)nc1C
    -7, 107, 101, -13
Cc1cccc(-c2nnc(SCC(=O)NC(=O)Nc3ccccc3F)n2Cc2ccco2)c1
    2, 102, 107, -53
Cc1ccc(S(=O)(=O)NCC(C)(C)N2CCOCC2)cc1C
    -8, 95, 89, -4
CCN=C(Nc1ccc(C(C)(C)C)cc1)SCC1CC1
    -17, 105, 109, -5
Cc1cc(C)nc(Sc2ccccc2)n1
    -7, 101, 100, -11
COc1ccc(OC)c(-c2cn(S(=O)(=O)c3ccccc3)nc2N)c1
    -15, 105, 103, -17
CCS(=O)(=O)c1nc(S(=O)(=O)c2ccc(Cl)cc2)c(NC(C)C)s1
    -7, 101, 103, 19
CCOC(=O)c1[nH]c2ccc(OCC)cc2c1CCCN1C(=O)c2ccccc2C1=O
    6, 103, 103, -19
CC(=O)N/N=C/c1ccc(C)c(C)c1C
    25, 100, 101, -12
CC1(C)C=C(C(N)=O)C(C)(C)N1OC(=O)c1ccco1
    ·, 107, 108, -1
Cc1cc(C)n(-c2ccc(N/N=C(/C#N)S(C)(=O)=O)cc2)n1
    9, 102, 103, -179
COc1cc(NC(C)=O)ccc1/C=N/NC(N)=S
    ·, 102, 106, -17
Cc1ccc(Nc2nnc(SC(C)C(=O)N3CCC(C)CC3)s2)cc1 (configuration not stated)
    30, ·, ·, 0
Cc1nnc(C)n1/N=C/c1cc(Br)cc(Br)c1O
    22, 92, 105, -102
O=C(c1ccccc1)c1ccccc1C(=O)N1CCN(c2ccccc2)CC1
    -15, 99, 103, -6
CN(C)c1cc[n+](C(=O)N2CCOCC2)cc1
    -2, 99, 99, -20
CCOC(=O)c1ccc(N2CCN(c3cccc(OC)c3)CC2)c(NC(=O)Nc2ccc(CC)cc2)c1
    55, 99, 103, 1
CCOC(=O)c1oc2ccccc2c1CSc1nnc(Cc2ccccc2)n1C
    8, 102, 96, -28
CCOC(=O)c1cnc(COc2ccc(C(C)(C)C)cc2)[nH]c1=O
    -47, 101, 108, -11
O=C(OCC(=O)N1CCCC1=O)c1cccc2ccccc12
    107, 101, 107, 6
COC(=O)CCNc1ccc2c(c1)OCCO2
    ·, 104, 109, 2
CC(C)(C)c1nc(-c2ccc(-c3ccon3)s2)no1
    33, 102, 114, 0
COc1ccc(NC(NC(C)=O)(C(F)(F)F)C(F)(F)F)c(OC)c1
    -2, 102, 101, 10
COc1ccccc1NS(=O)(=O)c1cccc(C(F)(F)F)c1
    -3, 99, 102, -19
Cc1ccc(C2=NN(C(=O)CSc3nc(N)cc(N)n3)C(c3ccco3)C2)cc1 (configuration not stated)
    -4, ·, ·, -22
CN(C)C(=O)NC1CC(=O)N(c2ccc3c(c2)OCCO3)C1 (configuration not stated)
    1, 102, 104, 4
CC(CNCc1ccc2c(c1)OCO2)NCc1ccc2c(c1)OCO2 (configuration not stated)
    -8, 105, 110, 5

Compounds above that have a CF3 group:
Results follow in this order: MbtI inh, Polio RdRp inh, Polio RdRp inh intensity, MenB inh
CCOC(=O)N1CCN=C1SCc1ccc(C(F)(F)F)cc1
    -5, 102, 106, -28
O=C(Nc1cccc(C(F)(F)F)c1)Nc1nc2ccccc2[nH]1
    -10, 108, 116, 0
O=C1CC(C2CCCO2)C(=O)N1c1cccc(C(F)(F)F)c1 (configuration not stated)
    5, 102, 103, -15
CCN(CC)CCNc1ccc(C(F)(F)F)cn1
    -15, 103, 103, -17
Cn1cnnc1SCNC(=O)C(F)(F)F
    -4, 99, 106, -6
COc1ccc(NC(NC(C)=O)(C(F)(F)F)C(F)(F)F)c(OC)c1
    -2, 102, 101, 10
COc1ccccc1NS(=O)(=O)c1cccc(C(F)(F)F)c1
    -3, 99, 102, -19

Additional compounds:
Results follow in this order: MbtI inh, Polio RdRp inh, Polio RdRp inh intensity, MenB inh
COc1ccc(OC)c(CNc2ccc3c(c2)CCC3)c1
    -12, 103, 108, -38
O=C(O)c1ccc(-c2ccccc2)o1
    18, 102, 107, 3
COc1cc2c3c(c1O)-c1c(cccc1OC)CC3[N+](C)(C)CC2 (configuration not stated)
    106, 100, 100, 1
CCN(CC(=O)Nc1ccc2[nH]c(=O)[nH]c2c1)Cc1nc2ccccc2c(=O)[nH]1
    6, 103, 97, 10
c1ccc2c(c1)nc(NCC1CCCO1)c1nnnn12 (configuration not stated)
    -97, 102, 120, -4
CC(=O)Nc1ccc(OCC(=O)N(c2ccccc2)C(C)C)cc1
    4, 102, 104, 1
O=C(Cn1ncn2c(cc3cc(F)ccc32)c1=O)NCCCN1CCOCC1
    31, 103, 101, -20
CCNS(=O)(=O)c1ccc(OC)c2ncccc12
    ·, 105, 109, -20
NC(=O)CSCc1nc2ccccc2s1
    -18, 103, 115, -87
O=C(CSc1ccc2ccccc2c1)N1CCN(c2ccc(O)cc2)CC1
    29, 99, 106, ·
Cc1nnc2c3ccccc3c(-c3ccc(O)cc3)nn12
    -8, 100, 101, 2
CC1(C)CC(=O)C/C(=N/c2nn[nH]n2)C1
    6, 95, 94, 15
NCc1ccc(OC(F)F)cc1
    -3, 104, 105, -23

Outcome played no part in choosing rows; about 1.7% have a hit in one of these screens.
